MLL AF4-AF9 inh: inhibitors of AF4 peptide binding to AF9, primary screen, biochemical, AlphaScreen, biotin-AF4 peptide, FLAG-AF9, single point; inhibition, % at 10 µM; hit rate 0.47% among 350,000;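 active means every replicate reaching a set inhibition limit, whatever the replicate mean, cut at about 25% in these data; inconclusive means mean inhibition reaches that limit but some replicates miss it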;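 further: 0% = plate neutral control median and 100% = total signal loss; the record names both 10 and 1 µM as test concentration; the first replicate is given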
Target sequence (P42568 whole entry, looked up): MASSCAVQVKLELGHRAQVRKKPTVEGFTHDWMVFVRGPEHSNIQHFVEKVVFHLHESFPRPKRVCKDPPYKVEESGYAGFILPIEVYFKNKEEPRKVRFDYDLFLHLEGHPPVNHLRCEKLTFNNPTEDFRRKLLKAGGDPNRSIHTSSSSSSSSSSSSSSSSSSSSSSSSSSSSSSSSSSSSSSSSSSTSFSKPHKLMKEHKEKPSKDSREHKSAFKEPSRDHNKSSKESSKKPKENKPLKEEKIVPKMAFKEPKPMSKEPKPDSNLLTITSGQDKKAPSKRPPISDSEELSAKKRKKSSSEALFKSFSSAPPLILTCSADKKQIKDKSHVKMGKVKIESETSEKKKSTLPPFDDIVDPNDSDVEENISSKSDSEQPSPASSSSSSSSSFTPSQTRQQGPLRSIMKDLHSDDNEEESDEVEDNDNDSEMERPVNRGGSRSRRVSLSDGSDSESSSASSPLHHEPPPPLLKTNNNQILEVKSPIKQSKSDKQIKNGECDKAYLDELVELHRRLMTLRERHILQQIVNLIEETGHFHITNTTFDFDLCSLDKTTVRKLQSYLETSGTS
Vif A3G: inhibitors of Vif binding to APOBEC3G peptide, primary screen, biochemical, TR-FRET, GST-Vif 1-94, biotin-A3G peptide, dose response retest (AID 1117319); TR-FRET GST-Vif / biotin-A3G peptide binding; higher % means a stronger effect; test concentration not given here; strong numbers were not always called active; one-dose inhibition, %; IC50 in µM for titrated hits; hit rate 0.57% among 260,000;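 active means above the screen mean plus three standard deviations and confirmed in dose response; inconclusive means results disagree or hit not tested in dose response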;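 further: Vif residues 1-94 fused to GST binding biotinylated APOBEC3G peptide 110-148; 0% = full assay without inhibitor and 100% = GST in place of GST-Vif; retest series ran down from 100 µM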
FGF22 binding: binders of human FGF22 protein, primary screen, FGF22 synaptogenesis inhibitor project, biophysical, thermal shift, single point; recombinant FGF22 thermal shift, SYPRO orange fluorescence; percent of sucrose octasulfate shift, DMSO zero; calls only at 9.99 µM; hit rate 1.5% among 340,000;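 active means melting point raised past a set limit in the mean and every replicate; inconclusive means no clear call; three in four hits are not shown here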
Target sequence (Q9HCT0 whole entry, looked up): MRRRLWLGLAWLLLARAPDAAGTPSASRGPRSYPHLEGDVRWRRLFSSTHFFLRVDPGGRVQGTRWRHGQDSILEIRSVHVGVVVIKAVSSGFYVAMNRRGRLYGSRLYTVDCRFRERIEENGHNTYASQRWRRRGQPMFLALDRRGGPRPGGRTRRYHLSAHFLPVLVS
E coli growth: E. coli growth inhibition, primary screen, OD600. Escherichia coli growth, 23 h; hits give low values. OD600 absorbance (test concentration not listed). hit rate 0.21% among 330,000. AID 1053175, 2014;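 active means OD600 absorbance below the run mean of sample wells minus 3.6 SD, in any replicate, cut at about 0.56 in these data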;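 further: stock transfer was 300 nL into about 60 µL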
UCH37 inh: inhibitors of human UCH37 deubiquitinase, primary screen, biochemical, Ub-AMC cleavage, fluorescence; Ubiquitin carboxyl-terminal hydrolase isozyme L5 (Homo sapiens), Q9Y5K5; purified proteasome/UCH37; inhibition, % (concentration not given with the values); hit rate 0.33% among 330,000; AID 588478, 2011;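 active means mean of two replicates above 20%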;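 further: 0% = compound-free wells with enzyme and 100% = wells lacking proteasome; stock transfer was 100 nL into about 20 µL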
Target sequence (Q9Y5K5 whole entry, looked up): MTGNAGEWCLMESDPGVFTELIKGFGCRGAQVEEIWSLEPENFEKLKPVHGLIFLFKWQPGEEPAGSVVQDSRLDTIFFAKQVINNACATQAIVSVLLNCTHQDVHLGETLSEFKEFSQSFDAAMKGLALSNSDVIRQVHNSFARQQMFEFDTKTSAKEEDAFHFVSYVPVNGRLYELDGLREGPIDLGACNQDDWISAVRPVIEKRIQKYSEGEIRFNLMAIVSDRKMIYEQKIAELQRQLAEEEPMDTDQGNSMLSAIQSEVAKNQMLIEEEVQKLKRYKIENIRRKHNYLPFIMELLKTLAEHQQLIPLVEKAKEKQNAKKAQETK
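Schedule: 30 min plus 25 min, room temperature / Material: human UCH37 within purified proteasomes / Technique: AMC fluorescence intensity at 355/460 nm / Buffer or medium: pH 7.4 Tris-HCl (50 mM) with ovalbumin, ATP-MgCl2, DTT / Controls: wells without proteasome as full block, compound-free enzyme plus substrate as uninhibited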
HNF4A DNA FP: change in binding of human HNF4A to DNA, primary screen, biochemical, fluorescence polarization, FITC-DNA. Hepatocyte nuclear factor 4-alpha (Homo sapiens), P41235. 1 h. activity change, % at 10 µM. hit rate 0.3% among 360,000. AID 1224865, 2016; in the data active means activity change above about 30%, passing the limit was not always enough;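 further: controls were the assay level and a saturating level of protein; the project sought stronger binding though the title names inhibitors; some compounds called inactive have numbers as strong as hits; positive values seem to mean higher polarization but the record does not say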
RanGTP-Imp inh: inhibitors of RanGTP-importin-beta interaction, primary screen, biochemical, FRET, CFP-Ran, YFP-importin-beta, homogeneous | Ran GTPase (GTP-bound) - importin-beta complex | inhibition, % (concentration not given with the values) | hit rate 1.1% among 300,000 | cell-free CFP-Ran/YFP-importin-beta FRET ratio | AID 2216, 2009;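 active means most replicates above 15%; inconclusive means exactly half above 15%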;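 further: 0% = DMSO wells and 100% = Ran loaded with GDP instead of GTP; wells of about 40 µL received 100 nL stock; the first replicate is given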
* marks the source's active call; other numbers are inactive results; i = inactive; ? = inconclusive; . = no result given; & = joins results of further samples.

mol | MLL AF4-AF9 inh | Vif A3G | FGF22 binding | E coli growth | UCH37 inh | HNF4A DNA FP | RanGTP-Imp inh
CN=C1S/C(=C\c2ccc(OCC(=O)OC)c(OC)c2)C(=O)N1C | 5.7 | . | i | 0.73 | 9.1 | -3.1 | 10
O=C(c1ccccc1F)N1CCN(c2ccc([N+](=O)[O-])c(NCc3cccnc3)c2)CC1 | 5.9 | . | i | 0.72 | 9.4 | -1.8 | -9.3
COc1ccc(C(=O)NCC(=O)N/N=C/c2cn(C)c3ccccc23)cc1OC | 1.2 | . | i | . | . | 1.5 | .
CCCOc1ccc(/C=N\NC(=O)CCc2n[nH]c(=O)[nH]c2=O)cc1OC | 4.0 | 32% | i | . | . | -1.7 | 1.3
Cc1ccccc1S(=O)Cc1ccc(C(=O)NC2CC2)o1 (stereo unspecified) | 0.4 | -5% | i | 0.71 | 5.9 | 2.6 | 0.9
CCCS(=O)(=O)NC(=O)C1(C)CCCN(C(=O)c2ccc(C(=O)OC)cc2)C1 (stereo unspecified) | -5.8 | . | i | . | . | 1.2 | .
O=S(=O)(c1ccc(F)c(Cl)c1)N1CCCC1 | 5.5 | ? | i | 0.66 | -0.9 | 1.6 | 0.6
COc1ccc(CCNCC(O)Cn2c3ccccc3c3ccccc32)cc1OC (stereo unspecified) | 13 | 2% | i | 0.64 | 5.2 | 6.3 | 10
CCOC(=O)C1(CC2CCCCO2)CCN(S(=O)(=O)c2cc(C)cs2)CC1 (stereo unspecified) | -2.1 | 6% | i | 0.65 | 2.7 | 0.3 | -3.3
CCC(C)C(CO)NCCCn1cnc2c(OC)ncnc21 (stereo unspecified) | -0.7 | 2% | . | . | . | 2.1 | .
O=C(NCc1ccc(F)cc1)c1cccs1 | -1.6 | . | i | 0.64 | 1.3 | -1.3 | -1.2
CC(=O)c1ccc2c3c(ccc([N+](=O)[O-])c13)CC2 | -3.8 | -5% | i | . | . | 1.3 | .
CC(=O)Nc1ccc(C(=O)NNC(=O)Cc2ccccc2)cc1 | 1.2 | -5% | i | 0.71 | -0.4 | 5.9 | 4.8
Clc1ccc(OCCCCCN2CCOCC2)cc1 | -1.2 | . | i | 0.66 | 4.3 | -0.9 | 3.6
O=c1[nH]c(/C=C/c2cccnc2)c([N+](=O)[O-])c(=O)[nH]1 | 0.0 | 4% | i | 0.66 | 14 | -2.7 | 0.1
O=C(Cn1cnc2c(NC(=O)OCc3ccccc3)ncnc21)NCc1ccccn1 | -14 | . | i | 0.66 | 0.7 | -2.0 | .
c1ccc(C2CNCCc3ccccc32)cc1 (stereo unspecified) | 5.4 | -9% | i | 0.67 | 2.0 | -2.1 | -0.8
C=CCSc1nnc(-c2cc3c(-c4ccccc4)nn(C)c3s2)n1C | . | 0% | . | 0.71 | -4.5 | 1.5 | -1.4
O=C1CC(SC2=NCCS2)C(=O)N1c1ccc(Cl)cc1 (stereo unspecified) | . | . | . | . | 5.8 | -2.5 | 2.2
Cc1cc(NC(=O)c2c(-c3ccccc3Cl)noc2C)no1 | -3.2 | 24% | i | 0.65 | 4.8 | 3.1 | -6.7
CCN(CC)c1nc(=S)nc(NC(C)(C)C)[nH]1 | 6.3 | 5% | i | 0.66 | 3.0 | -1.2 | 3.4
Cc1ccc(N2CC(C(=O)N3CCCCCC3)CC2=O)cc1 (stereo unspecified) | -4.1 | -3% | i | 0.73 | 0.1 | -3.3 | 5.3
CCCN(CCC)S(=O)(=O)c1ccc(C(=O)Nc2c(C)n(C)n(-c3ccccc3)c2=O)cc1 | -1.2 | 10% | i | 0.69 | 2.2 | 3.0 | 1.2
O=C(CN1CCN(CN2C(=O)NC3(CCCCCC3)C2=O)CC1)Nc1cccc(F)c1 | -2.2 | . | i | 0.67 | -1.3 | 0.9 | .
CCN(CC)S(=O)(=O)c1ccc(S(=O)(=O)N2CCN(CCC#N)CC2)cc1 | -0.5 | ? | . | 0.75 | 6.0 | -1.9 | -1.1
CC(=O)Nc1ccc(NC(=O)CCC(=O)Oc2ccc(C)cc2)cc1 | -1.0 | -15% | i | 0.67 | 0.4 | -2.6 | -1.9
COc1ccc(CC(=O)NNC(=O)CSc2nc(C)c(C)c(=O)[nH]2)cc1 | -12 | 5% | i | 0.64 | 0.2 | 2.5 | ?
Cc1nc(-c2ccc(NC(=O)c3ccccc3)cc2)cs1 | 0.0 | . | i | 0.62 | -6.1 | -1.0 | 1.3
CCCc1[nH]nc2c1C(c1ccc(OC(=O)N3CCOCC3)c(OC)c1)C(C#N)=C(N)O2 (stereo unspecified) | . | 1% | . | 0.67 | 3.8 | 0.3 | 0.0
CC(=O)N1CCN(C(=S)Nc2ccc(SC(F)F)cc2)CC1 | -3.3 | 11% | i | 0.68 | 1.5 | 0.7 | 2.6
Cc1ccc(S(=O)(=O)CCC(=O)OCC(=O)c2ccc(C)c(C)c2)cc1 | 3.7 | 1% | i | 0.69 | 1.7 | -4.6 | 2.0
Cc1cccc(C)c1OCc1nnc(SCC(=O)Nc2nccs2)n1-c1ccccc1 | . | -2% | . | 0.7 | 2.9 | -4.2 | 4.3
COc1ccc(CCN(C)C(=O)c2cccc(S(=O)(=O)NCc3ccccc3)c2)cc1OC | 12 | . | i | 0.7 | -0.7 | 1.1 | 5.0
COc1ccc(NC(=O)CS(=O)CC(=O)Nc2ccc(-n3cnnn3)c(C)c2)cc1 (stereo unspecified) | 0.3 | . | i | 0.65 | 3.2 | -3.0 | -3.7
CC(=O)c1c(C)[nH]c(C(=O)CN2CCN(S(=O)(=O)c3ccccc3)CC2)c1C | -0.1 | . | i | 0.68 | 3.4 | -2.9 | .
COc1ccc2nc(Cl)c(C3CC(c4ccco4)=NN3C(=O)CCCC(=O)O)cc2c1 (stereo unspecified) | 1.5 | ? | i | 0.67 | 5.1 | -3.0 | -1.5
CSc1ccccc1NC(=O)C1(C)CCN1C(=O)CCC1CCCC1 (stereo unspecified) | -1.8 | . | i | . | . | -1.9 | .
COc1ccc(-c2c(-c3cc(OC)cc(OC)c3)n(C)c3ccc(-c4ccc5[nH]ccc5c4)cc23)cc1 | -5.1 | . | i | 0.68 | -21 | 5.9 | .
CC(C)c1ccc(C2=C(O)c3ccccc3C(=O)C2=O)cc1 | . | 2% | . | 0.71 | 10 | 0.6 | -2.5
CC(=O)Nc1ccc(NC(=O)C(C)OC(=O)CCC(=O)c2ccc(F)cc2)cc1 (stereo unspecified) | . | 0% | . | 0.73 | 1.4 | 5.5 | 2.5
O=C(NOC(=O)c1ccccc1F)c1ccc(OC(F)F)cc1 | -0.1 | 7% | i | 0.7 | 3.4 | 0.8 | -1.0
c1ccc(C2=NN(c3ccccc3)CC2)cc1 | 3.1 | . | i | 0.69 | -268 | -0.5 | ?
Cc1ccc(CNC(=O)C2(NC(=O)Nc3ccc(C)cc3)CCCCC2)cc1 | . | -2% | . | 0.71 | 3.2 | 0.3 | 1.7
N#CCC(=N)N1CCN(c2ccc(Cl)cc2)CC1 | . | -5% | . | 0.77 | 1.7 | 2.1 | 0.8
C/C(=N\Nc1ccc(F)cc1F)c1ccc(N2CCOCC2)cc1 | 12 | 4% | i | . | . | 3.6 | -1.6
O=C(N/C(=C/c1ccc(Br)cc1)c1nc2ccccc2[nH]1)c1ccco1 | . | 2% | . | 0.7 | -39 | -2.0 | ?
CCOC(=O)C(NCc1ccccc1OC)(NC(C)=O)C(F)(F)F (stereo unspecified) | . | 0% | . | 0.72 | 0.1 | -1.5 | 6.0
CCn1c(SCC(=O)N2CCCc3ccccc32)nnc1-c1ccco1 | . | 2% | . | 0.76 | -3.6 | -0.5 | -1.1
CCOc1cc(C(=O)Nc2ccc3c(c2)OCO3)ccc1OCCOc1ccccc1Cl | . | 2% | . | 0.73 | 2.9 | -2.7 | 5.6
O=C(OCc1cc(=O)n2c(n1)sc1ccccc12)c1ccc2c(=O)n3c(nc2c1)CCC3 | . | . | . | 0.7 | -7.5 | -39 | -1.4
Cc1ccc2c(c1)C1C3CCC(C3)C1S(=O)N2 (stereo unspecified) | 2.5 | 3% | i | 0.71 | 0.8 | 0.2 | -2.1
COc1cccc(/C=N/N2C(=O)CSC2=S)c1O | 0.4 | 29% | i | . | . | 3.0 | -0.2
Cc1c(CN2CCN(CC(C)(C)C)C(CCO)C2)[nH]c2ccccc12 (stereo unspecified) | -2.1 | . | i | 0.69 | 4.9 | -1.8 | 2.4
Cc1cc(N2CCN(C(=O)c3cccs3)CC2)c(F)cc1[N+](=O)[O-] | 0.9 | . | i | 0.71 | 3.8 | 0.0 | -7.2
NC1=NC[C@H](Cc2ccc(O)cc2)N1CCc1cccc(F)c1 | -2.6 | . | i | . | -0.3 | 7.8 | 4.6
COc1ccccc1-n1cc(C(=O)N2CCCC(CO)(Cc3ccccc3C)C2)cn1 (stereo unspecified) | -1.0 | . | . | 0.68 | 0.0 | 0.1 | -3.1
CN(C)S(=O)(=O)c1cccc(-c2cn3cc(Cl)ccc3n2)c1 | . | 2% | . | 0.67 | -13 | 6.9 | 2.2
c1cn2cc(CN3CCOCC3)nc2s1 | . | 12% | . | 0.65 | 1.4 | 3.1 | 3.2
C[C@H](CO)N1C[C@H](C)[C@@H](CN(C)C(=O)Nc2ccccc2)Oc2c(NC(=O)Nc3ccc(C(F)(F)F)cc3)cccc2C1=O | 3.8&4.0 | . | i | 0.76 | 6.1 | -0.5 | .
O=C(NCCc1ccccc1)C(=O)NCC1OCCN1S(=O)(=O)c1ccc(Br)cc1 (stereo unspecified) | -0.2 | -3% | i | 0.73 | 0.7 | 3.0 | -0.4

Additional results follow.
mol | MLL AF4-AF9 inh | Vif A3G | FGF22 binding | E coli growth | UCH37 inh | HNF4A DNA FP | RanGTP-Imp inh
Cc1ccc(S(=O)(=O)Nc2ccc(Oc3cccnc3)nc2)cc1 | -3.7 | -4% | i | 0.61 | 1.0 | 2.8 | 3.0
CCC(=O)c1ccccc1OCCCCn1cncn1 | -1.5 | . | i | 0.72 | 0.5 | -0.7 | 0.4
O=C(CSc1nnc(-c2cccs2)o1)OCc1ccccc1 | 5.6 | -3% | i | 0.64 | 1.9 | 0.6 | 1.2
O=C(CCC1CCCCC1)NCc1ccccn1 | 0.6 | -1% | i | 0.71 | 1.8 | 0.2 | -0.7
CCOC(=O)c1c(C)[nH]c(C)c1S(=O)(=O)NC1CCN(C(=O)OCC)CC1 | -1.4 | . | i | 0.69 | 1.4 | -0.1 | -2.2
Cc1ccc(-n2nc3c(c2NC(=O)C(C)C)CS(=O)(=O)C3)cc1 | . | 4% | . | 0.72 | 0.8 | 3.4 | -5.0
CCN(CC)CCNC(=O)c1ccc(NC(=O)C2CC(=O)N(c3ccc4c(c3)OCCO4)C2)cc1 (stereo unspecified) | . | . | . | 0.67 | 1.5 | 2.8 | 0.5
CCOC(=O)Cc1c(C)nc2c(-c3ccc(OC)cc3)c(C)nn2c1C | . | -3% | . | 0.72 | 4.4 | 0.9 | -0.5

This is a subset; the hit share may differ from the screen's.
